# RanGTP-Impb inh = inhibitors of RanGTP-importin-beta interaction, primary screen, biochemical, FRET, CFP-Ran, YFP-importin-beta, homogeneous; inhibition, % (no concentration beside the values); actives 1.1% (n = 300,000); cell-free CFP-Ran/YFP-importin-beta FRET ratio;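 active = most replicates above 15%; inconclusive = exactly half above 15%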;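 note: 0% = DMSO wells and 100% = Ran loaded with GDP instead of GTP; wells of about 40 µL received 100 nL stock; the first replicate is given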
# FGF22 binding = binders of human FGF22 protein, primary screen, FGF22 synaptogenesis inhibitor project, biophysical, thermal shift, single point; actives 1.5% (n = 340,000); Fibroblast growth factor 22 (Homo sapiens), Q9HCT0; calls only at 9.99 µM; recombinant FGF22 thermal shift, SYPRO orange fluorescence; percent of sucrose octasulfate shift, DMSO zero;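 active = melting point raised past a set limit in the mean and every replicate; inconclusive = no clear call; three in four hits are not shown here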
# Target sequence (Q9HCT0 whole entry, looked up): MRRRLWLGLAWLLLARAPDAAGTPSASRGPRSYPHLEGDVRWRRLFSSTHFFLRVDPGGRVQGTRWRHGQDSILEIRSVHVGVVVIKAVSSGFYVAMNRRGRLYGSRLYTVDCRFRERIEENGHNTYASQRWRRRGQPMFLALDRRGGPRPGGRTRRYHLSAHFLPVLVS
# AF4-AF9 inh = inhibitors of AF4 peptide binding to AF9, primary screen, biochemical, AlphaScreen, biotin-AF4 peptide, FLAG-AF9, single point. actives 0.47% (n = 350,000). inhibition, % at 10 µM;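 active = every replicate reaching a set inhibition limit, whatever the replicate mean, cut at about 25% in these data; inconclusive = mean inhibition reaches that limit but some replicates miss it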;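 note: 0% = plate neutral control median and 100% = total signal loss; the record names both 10 and 1 µM as test concentration; the first replicate is given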
# Target sequence (P42568 whole entry, looked up): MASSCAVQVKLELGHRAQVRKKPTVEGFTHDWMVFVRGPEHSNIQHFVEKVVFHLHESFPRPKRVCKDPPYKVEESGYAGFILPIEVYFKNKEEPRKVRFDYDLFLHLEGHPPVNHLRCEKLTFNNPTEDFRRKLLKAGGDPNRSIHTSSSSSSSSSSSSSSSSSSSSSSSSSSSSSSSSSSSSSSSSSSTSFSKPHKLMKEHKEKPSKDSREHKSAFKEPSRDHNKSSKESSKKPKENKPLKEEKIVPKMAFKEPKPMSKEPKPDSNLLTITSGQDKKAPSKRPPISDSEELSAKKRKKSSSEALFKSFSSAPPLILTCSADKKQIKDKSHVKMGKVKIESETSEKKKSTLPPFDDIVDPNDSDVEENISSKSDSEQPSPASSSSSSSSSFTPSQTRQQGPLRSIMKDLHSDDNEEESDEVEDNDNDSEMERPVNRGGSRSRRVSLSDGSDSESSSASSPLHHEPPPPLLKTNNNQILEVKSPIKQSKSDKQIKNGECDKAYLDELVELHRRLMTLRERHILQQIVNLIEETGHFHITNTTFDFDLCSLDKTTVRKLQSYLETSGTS
# T cruzi inh = inhibitors of intracellular T. cruzi growth, primary screen, luminescence, NIH3T3 host cells. T. cruzi beta-gal in NIH3T3, 90 h. inhibition, % (concentration not given with the values). actives 1.4% (n = 300,000). AID 1885, 2009;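 active = mean inhibition across valid replicates above about 55%, limit read from the data; inconclusive = mean below that limit but half or more replicates reach it; inactive = mean below it, under half of replicates reach it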;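 note: signal also drops with host cell toxicity which is not excluded here; 0% = plate median of DMSO wells and 100% = zero luminescence signal; higher percent means less beta-gal luminescence so fewer parasites; stock transfer was 50 nL into about 50 µL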
# Beta cell apopt = inhibitors of cytokine-induced beta cell apoptosis, primary screen, luminescence; INS-1E cytokine-induced death, ATP luminescence, 48 h; percent of positive-control rescue, neutral wells zero; protection from apoptosis, % (test concentration not listed); actives 0.8% (n = 300,000);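 active = all replicates at 75% or more, or half of them and the mean; inconclusive = half reach 75% but not the mean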;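 note: 0% = cytokine-treated negative control wells and 100% = positive control rescue; higher means more ATP so stronger rescue from cytokine killing; wells of about 40 µL received 100 nL stock; the first replicate is given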
# Ecoli rRNA inh = reduced GFP signal of wild-type E. coli, primary screen, bacterial rRNA inhibitor project, GFP/RFP fluorescence, OD600, single point; actives 1.6% (n = 350,000); GFP signal change (wild-type ribosome), % (concentration not given with the values); E. coli WT GFP vs humanized-ribosome RFP mutants, 24 h; active compounds read low; DMSO median 0, no signal -100;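 active = significant combined selectivity score with lowered wild-type GFP, culture density cut under 30%, mutant RFP and density less affected; inactive = any of these conditions unmet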; note: one replicate is shown; some compounds called inactive have numbers as strong as hits
# ALR H2O2 inh = inhibitors of human ALR sulfhydryl oxidase, primary screen, biochemical, H2O2 detection, HRP-luminol luminescence, single point; inhibition, % (no concentration beside the values); actives 3.8% (n = 290,000); AID 485317, 2010; purified ALR, DTT oxidation;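 active = mean and each replicate at 75% or more; inconclusive = only one of the two met; inactive = neither met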;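 note: stock transfer was 7.5 nL into about 7.5 µL; 0% = neutral wells and 100% = wells with inactivated enzyme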
# Target sequence (P55789 whole entry, looked up): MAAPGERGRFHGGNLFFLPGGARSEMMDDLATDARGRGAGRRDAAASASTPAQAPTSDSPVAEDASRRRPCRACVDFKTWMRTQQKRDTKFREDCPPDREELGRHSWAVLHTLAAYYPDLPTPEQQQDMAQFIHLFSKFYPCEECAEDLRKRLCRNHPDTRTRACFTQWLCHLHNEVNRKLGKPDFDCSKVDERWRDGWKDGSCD
# Calb FLC = C. albicans growth inhibition with fluconazole, primary screen, CaCi-2 strain, Alamar Blue fluorescence | C. albicans CaCi-2 (fluconazole-resistant clinical isolate) + fluconazole, 48 h | actives 0.57% (n = 300,000) | growth inhibition, % (test concentration not listed) | AID 1979, 2009;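 active = most replicates above 75%; inconclusive = exactly half above 75%; inactive = most below 75%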;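 note: all wells also contain fluconazole at 8 µg/ml as a sub-toxic cotreatment; 0% = median of DMSO wells and 100% = median of geldanamycin control wells; wells of about 8 µL received 7.5 nL stock; the first replicate is given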
# Ecoli rRNA inh OD600 = recorded beside Ecoli rRNA inh, whose call it bears; OD600 change, %; measured here: OD600 growth;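 optical density of the mix in the first replicate; 0 = DMSO median and -100 = no signal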
# Ecoli rRNA inh RFP = second read-out of Ecoli rRNA inh, no call of its own (marks repeat the call); RFP signal change, %; measured here: RFP humanized mutant strains;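 first replicate; 0 = DMSO median and -100 = no signal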
# An asterisk follows results filed as active; i = inactive; ? = inconclusive; . = no result given; & = joins results of further samples. Not all compounds are listed; count on the stated rates, not on these rows.
SMILES,RanGTP-Impb inh,FGF22 binding,AF4-AF9 inh,T cruzi inh,Beta cell apopt,Ecoli rRNA inh,Ecoli rRNA inh OD600,Ecoli rRNA inh RFP,ALR H2O2 inh,Calb FLC
CCCOc1cccc(C(=O)Nc2cccc3ncccc23)c1,-1.7,i,-1.8,-4,2,-1,7,-1.6,-2,14
O=C(Nc1nnc(COc2ccc(Cl)cc2)s1)C1CCCO1 (stereo not given),7.3,.,.,-15,-3,.,.,.,0,-9
Cn1c(=O)c(C(=O)NCCc2ccc(Cl)cc2)c(O)c2ccccc21,6.6,i,7.4,-1,5,21,22,1.2,-7,11
CN(C)c1ccnc(NCc2ccccc2)c1C#N,-1.2,.,.,-8,2,4,7,-6.5,-17,13
COc1ccc(CN2CCC(C(=O)c3ccc(Cl)cc3)CC2)cc1,-1.6,i,10,36,-7,2,1,0.9,.,6
CC(=O)c1cn(-c2ccc(Cl)cc2)c(=O)[nH]c1=O,0.7,i,-3.8,-2,0,2,-1,0.6,-10,-1
O=C(CN1CCCCCCC1)N/N=C/c1ccc(F)c(F)c1,2.6,i,-2.1,-31,-1,.,.,.,-4,9
O=C(c1ccccc1)N1N=C(c2ccccc2O)CC1c1ccccc1 (stereo not given),-6.6,i,-5.2,5,-1,2,10,-1.5,-1,7
Cc1oc(-c2ccc(Cl)cc2)nc1CN1CCCC(C(=O)NCCCN2CCOCC2)C1 (stereo not given),0.1,.,.,50,2,.,.,.,-1,?
CCOC(=O)c1ccc(NC(=O)Cn2nnc(-c3ccc(C)cc3)n2)cc1,7.4,.,.,2,3,.,.,.,1,-8
CSc1nc(SCCN(C)C)c2c3c(sc2n1)COC(C)(C)C3,?,i,4.0,42,-4,-23*,-14*,2.5*,0,-28
COc1ccc(-c2nnc(SCC(=O)NCc3cccs3)n2C(C)C)cc1,3.5,.,.,7,-1,.,.,.,18,-2
CC(=O)c1cccc(NC(=O)NNC(=O)c2ccc(-c3ccccc3)cc2)c1,0.8,i,-2.3,-2,3,2,2,2.2,1,-3
Cc1nc(Nc2nc3ccccc3o2)nc2c1CCC2,-2.9,.,.,-4,11,.,.,.,-4,0
CCOc1cc(/C=N\NC(=O)C2C(=O)NCC2c2ccccc2)ccc1OC (stereo not given),8.7,.,.,-18,2,.,.,.,-4,-5
NS(=O)(=O)c1ccc(NC(=S)NC(=O)c2ccc(Br)o2)cc1,-3.3,i,1.6,-9,-3,-3,-4,-2.6,-4,2
C/C(=N\NC(=O)c1nnn(-c2nonc2N)c1-c1cccs1)c1ccc(O)cc1,-0.4,i,1.1,-9,-3,-1,-6,-0.4,3,1
CCOP(=O)(OCC)C(NC(=O)NS(=O)(=O)c1ccc(C)cc1)c1ccccc1 (stereo not given),-1.8,i,0.7,10,.,6,12,-3.5,-9,9
Cc1ccc2nsnc2c1S(=O)(=O)NCCc1c(C)[nH]c2ccc(F)cc12,2.3,.,.,3,-11,.,.,.,5,-3
COc1ccc(CCNc2nc3ccc(C)cc3n3cnnc23)cc1OC,4.7,i,0.9,9,-4,5,7,-0.4,0,7
Cc1ccc2c(c1)/C(=N/OC(=O)c1ccc(F)cc1)CCS2,?,.,.,8,-8,.,.,.,6,11
CCN(CC)C(=S)SCC(=O)Nc1ncc2c(n1)CC(C)(C)CC2=O,-3.6,i,-1.2,-13,-8,5,9,-0.9,6,13
COC(=O)/C=C/c1ccc2c(c1)S(=O)(=O)N(c1cccc(OC)c1)[C@H]2CC(=O)OC,2.7,i,.,3,-3,-11,-15,0.5,-2,-8
COc1ccc(C(=O)CSc2n[nH]c(-c3ccco3)n2)cc1,4.7,.,.,10,-2,.,.,.,-19,37
Cc1noc(C)c1NC(=O)N(C)C[C@@H]1Oc2ccc(NC(=O)CCC(F)(F)F)cc2CC(=O)N([C@@H](C)CO)C[C@@H]1C,.,i,-3.4&-5.3,.,-3,4&4,-6&15,1.4&-5.0,4,.
Cc1cccnc1NC(=O)CCC(=O)c1cccs1,.,i,-0.8,.,-2,.,.,.,-3,.
O=C(NCCN1CCCCC1)c1cc2ccccc2[nH]1,2.0,.,.,-10,-3,.,.,.,-8,-3
CSC1=N/C(=C\c2ccc(C)s2)C(=O)S1,1.1,.,.,-10,2,.,.,.,-3,13
S=C(Nc1ccccc1)NC1CCN(Cc2ccccc2)CC1,-4.6,i,2.5,12,0,16,10,-1.7,4,-7
CC1CCCCC1NC(=O)CN(C)S(=O)(=O)c1ccc2c(c1)CCC(=O)N2 (stereo not given),3.3,i,3.7,6,-7,1,5,0.8,0,-1
O=S(=O)(Nc1ccc(S(=O)(=O)Nc2ncccn2)cc1)c1ccc(Cl)cc1,-1.9,i,5.0,-5,0,0,6,-6.6,-28,2
O=C(CSc1nnnn1-c1ccc(C(=O)O)cc1)NC1CCCCC1,2.2,i,-1.4,-15,-7,1,9,-1.1,.,-1
COC(=O)C(C(C)=O)C1=C/C(=N\S(=O)(=O)c2ccc(C)cc2)c2ccccc2C1=O (stereo not given),13,.,.,4,1,.,.,.,15,15
CCCN1C(=O)c2ccc(C(=O)Nc3nccs3)cc2C1=O,-2.5,.,.,-7,-5,4,11,0.6,25,9
Cc1ccc(CNC(=O)C2CCN(S(=O)(=O)c3ccc(Br)s3)CC2)cc1,8.2,i,1.9,12,5,6,10,1.1,-2,1
CCCCSc1nc2ccccc2[nH]1,3.2,i,-3.0,2,-1,-20,-21,-4.4,-1,11
CCOC(=O)N1C(=O)C2(CCCCC2)N(c2ccccc2Cl)C1=S,0.8,.,.,-15,-4,.,.,.,0,100*
CCn1c(SCC(=O)NCc2ccco2)nnc1-c1c[nH]c2ccccc12,-5.6,.,.,0,-4,.,.,.,11,10
COc1ccccc1CNC(=O)COC(=O)Cn1cnc2ccccc21,0.0,i,-2.4,-5,0,11,8,14,0,-2
COC(=O)c1ccccc1N=C(SC)N(C)C,7.0,.,.,-14,-2,.,.,.,-3,-4
Cc1cccc(C)c1NC(=O)CN(C)CC(=O)Nc1ccc(F)c(Cl)c1,.,i,-0.5,.,-1,-27,-27,-1.3,.,-11
Cn1cccc1-c1nc2ccccc2n1C,3.8,i,1.7,-16,-1,1,5,-1.1,-5,-35
ONc1cccnc1-n1nc(C(F)(F)F)cc1C(F)(F)F,-6.5,.,.,3,-4,.,.,.,-49,-6
CC(Oc1ccc(-c2ccccc2)cc1)C(=O)N1CCOCC1 (stereo not given),1.4,.,.,-2,-4,.,.,.,-14,2
Cc1noc(NS(=O)(=O)c2ccc(NS(=O)(=O)c3ccc(Cl)cc3)cc2)c1C,.,i,-2.9,.,-9,7,-7,-2.5,5,.
CCc1ccc(NC(=O)CN(c2cccc(C)c2)S(C)(=O)=O)cc1,-3.4,i,2.2,-20,1,-4,-14,9.2,11,-3
CCN(C(=O)CSc1nc(-c2ccccc2)c(-c2ccccc2)[nH]1)C1CCS(=O)(=O)C1 (stereo not given),0.7,.,.,-4,1,.,.,.,99*,6
Brc1ccc(CSc2nnc(-c3cnccn3)n2Cc2ccco2)cc1,2.9,i,-3.3,14,-9,-54,-79,-27,6,99*
CCC(=O)Nc1sccc1C(=O)OC,-4.0,i,-2.2,-13,-4,8,-10,-1.9,-12,7
Nc1nc(NCC2CCCO2)nc(NCC2CCCO2)c1[N+](=O)[O-] (stereo not given),1.4,.,.,-19,-15,.,.,.,-3,?
N#Cc1c(C(F)(F)F)cc(-c2ccccc2)nc1SCC(=O)N1CCOCC1,3.2,.,.,-7,-2,.,.,.,-5,14
COc1ccc(-n2c(SCC(=O)NNC(=O)c3ccc(C)cc3)nnc2-c2ccncc2)cc1,1.8,.,.,4,1,.,.,.,.,-16
O=C(Nc1ccc(N2CCOCC2)nc1)c1ccc(C(F)(F)F)cc1,.,i,-0.5,.,-7,13,13,2.8,-1,-19
COc1ccc(/C=C/C(=O)NCCc2ccc(S(N)(=O)=O)cc2)cc1,-2.3,.,.,2,-5,.,.,.,-11,12
COC(=O)c1ccc(C23CC4(C2)[C@H](CN(C)[C@@H]4c2ccccc2)C3c2ccc(C(F)(F)F)cc2)cc1 (stereo not given in full),-1.8,i,4.3,16,18,12,11,-1.1,-9,-3
CCOC(=O)N1CCN(C(=O)CC(C)S(=O)(=O)c2cc3c(cc2C)NC(=O)CO3)CC1 (stereo not given),-5.8,i,-2.7,10,-3,1,3,-0.6,-1,11
O=C(Oc1ccc(-c2nnco2)cc1)c1ccco1,.,i,-10,2,-2,2,17,-1.9,-3,-3
Cc1cc(C)cc(OCCn2ccnc2)c1,-4.5,i,2.1,-21,2,9,4,3.3,-3,0
COC(=O)c1[nH]c2cccc(C)c2c1NC(=O)CN1CCN(C(=O)c2ccco2)CC1,3.6,.,.,-15,-1,.,.,.,-4,-8
CCOC(=O)Cn1cnc2c(nnn2-c2ccccc2)c1=O,3.4,.,.,-5,6,.,.,.,4,0
# The list goes on:
SMILES,RanGTP-Impb inh,FGF22 binding,AF4-AF9 inh,T cruzi inh,Beta cell apopt,Ecoli rRNA inh,Ecoli rRNA inh OD600,Ecoli rRNA inh RFP,ALR H2O2 inh,Calb FLC
Cc1ccc(OCC(=O)Nc2ccc(N(C)C)cc2)cc1,9.2,.,.,8,-7,.,.,.,54,8
COc1cc(OC)cc(-c2nnc(NC(=O)CCS(=O)(=O)c3ccc(C)cc3)o2)c1,-3.4,i,-0.1,-21,-7,12,8,9.7,-3,2
O=C(C1CC(=O)N(c2ccc(Cl)cc2)C1)N1CCCCCC1 (stereo not given),3.3,i,-1.2,-1,-6,8,9,4.1,1,-5
CCCc1c(C(=O)N/N=C(/C)c2ccncc2)nnn1-c1nonc1N,-7.8,i,-19,-6,-1,17,6,1.5,-4,-7
CCN(CC)Cc1c(C(=O)N/N=C/c2ccccn2)nnn1-c1nonc1N,6.4,i,-1.9,-7,-5,10,6,0.0,3,-3
COc1ccc(CNC(=O)C(=O)NCC2OCCN2S(=O)(=O)c2cccs2)cc1 (stereo not given),-2.1,i,-38,-1,0,.,.,.,-5,-4
Cn1c(SCC(=O)Nc2ccccc2C(F)(F)F)nc2c(c1=O)SCC2,?,i,-1.2,-3,2,8,11,-0.4,31,0
Cc1c(Cl)cccc1NC(=O)CNc1cccc(S(=O)(=O)N(C)C)c1,?,.,.,-1,.,.,.,.,-6,?
CN(Cc1ccccc1)C(=O)COC(=O)c1cc(NS(=O)(=O)c2cccs2)ccc1O,1.0,i,-0.6,-12,2,-22,-19,-3.2,-1,24

# 2 successive entries out of the list so far:
SMILES,RanGTP-Impb inh,FGF22 binding,AF4-AF9 inh,T cruzi inh,Beta cell apopt,Ecoli rRNA inh,Ecoli rRNA inh OD600,Ecoli rRNA inh RFP,ALR H2O2 inh,Calb FLC
Cc1c(Cl)cccc1NC(=O)CNc1cccc(S(=O)(=O)N(C)C)c1,?,.,.,-1,.,.,.,.,-6,?
CN(Cc1ccccc1)C(=O)COC(=O)c1cc(NS(=O)(=O)c2cccs2)ccc1O,1.0,i,-0.6,-12,2,-22,-19,-3.2,-1,24
